Assay outcomes from PubChem.
AID504770: growth inhibitors of E. coli YBA685 in a screen for V. cholerae RctB (chromosome II replication) inhibitors; actives 0.27% (n = 130,000); z-score (no concentration beside the values); E. coli YBA685 rctB-dependent plasmid, OD600 growth, 3 h; stronger effect = lower value; AID 504770;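 active = z-score under -2 on both plates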;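 note: wells of about 30 µL received 100 nL stock; score is relative to mean and SD of the test wells; the first replicate is given; strong numbers were not always called active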
Ba CapD inh: blocks the Bacillus anthracis CapD enzyme. purified CapD enzyme, fluorescence intensity read-out; stronger effect = lower value; some hits fall short of the stated cut. z-score (no concentration beside the values). actives 0.23% (n = 140,000). AID 492967;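 active = z-score under -4 in either of two replicates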;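 note: stock transfer was 100 nL into about 40 µL; score is relative to mean and spread of the plate; one replicate is shown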
* marks the source's active call; other numbers are inactive results; . = not tested or not shown.

SMILES | AID504770 | Ba CapD inh
CCc1ccc(OCC(=O)C(C#N)c2nc3ccccc3[nH]2)cc1 (configuration not stated) | 1.6 | 0.6
C=CCn1c(SCC(=O)Nc2ccc3c(c2)OCCO3)nc2sc3c(c2c1=O)CCC3 | . | 0.32
O=C(CCn1[nH]c(=O)c2ccccc2c1=O)OC1CCCCC1 | -1.1 | .
COc1ccc(CCNc2ccccc2C(=O)O)cc1OC | -0.7 | .
CC12CCC(CN(CC(O)Cn3c4ccccc4c4ccccc43)C1)C2(C)C (configuration not stated) | . | 0.62
Cn1c(=O)c2c(nc(NCc3ccc4c(c3)OCO4)n2Cc2c(Cl)cccc2Cl)n(C)c1=O | . | -0.3
Cn1c(=O)c2[nH]c(N3CCCC3)nc2n(C)c1=O | -0.65 | .
N#CC(Cc1ccccc1OC(F)F)c1nc2ccccc2[nH]1 (configuration not stated) | 0 | .
Cc1sc2c(c1C)c(=O)nc1n2C(c2ccccc2)C=CS1 (configuration not stated) | -0.5 | -0.85
Cc1ccc(-c2cc(C#N)c(=O)n(Cc3c(Cl)cccc3Cl)c2)cc1 | . | 2.3
O=c1[nH]cc(S(=O)(=O)N2CCCCCC2)c(=O)[nH]1 | 1.8 | .
O=C(CCNS(=O)(=O)c1cccc2nsnc12)NC1CCCC1 | . | -1.5

Record cards, from the list above. Screens in order: AID504770	Ba CapD inh
COc1ccc(CCNc2ccccc2C(=O)O)cc1OC in the list: -0.7	.
CCc1ccc(OCC(=O)C(C#N)c2nc3ccccc3[nH]2)cc1 (configuration not stated) in the list: 1.6	0.6
C=CCn1c(SCC(=O)Nc2ccc3c(c2)OCCO3)nc2sc3c(c2c1=O)CCC3 in the list: .	0.32
Cn1c(=O)c2c(nc(NCc3ccc4c(c3)OCO4)n2Cc2c(Cl)cccc2Cl)n(C)c1=O in the list: .	-0.3
N#CC(Cc1ccccc1OC(F)F)c1nc2ccccc2[nH]1 (configuration not stated) in the list: 0	.

The list goes on.
SMILES | AID504770 | Ba CapD inh
C#CCSc1nnc2c3ccccc3n(CC)c2n1 | . | -0.27
COC1OC(COC(C)=O)C(OC(C)=O)C(OC(C)=O)C1NC(C)=O (configuration not stated) | . | -0.26
COc1ccc(C2C(C(=O)N3CCN(c4ccccc4OC)CC3)CCC(=O)N2c2ccc(OC)cc2)cc1 (configuration not stated) | -0.8 | -0.16
CCOC(=O)c1nc(C)sc1-c1ccnn1S(=O)(=O)c1ccccc1C(F)(F)F | -0.85 | 10
CCC(=O)NC(=S)Nc1ccc(NC(=O)c2ccc(Br)o2)cc1 | 0.2 | -0.49
NC(=O)CSc1ccc(-c2ccncc2)nn1 | -0.45 | 0.46
COc1ccc2c(Sc3ccc(C)cc3)c(C(=O)NCCc3ccc(OC)c(OC)c3)[nH]c2c1 | -0.65 | -0.17
Cc1cc(C)n2nc(C(=O)Nc3sc4c(c3C(N)=O)CCC4)nc2n1 | 0.3 | .
Cc1nc(/N=C(\N)NC(=O)Nc2ccc(Cl)cc2)sc1Br | 0.7 | 0.6
CCCCCCOc1ccc(C(=O)Nc2ccccn2)cc1 | 2.6 | 0.16
COc1cc(CN2CCCC(C(=O)N3CCCCCC3)C2)ccc1OCc1ccccc1 (configuration not stated) | 0.5 | -0.25
Cc1ccc(S(=O)(=O)Nc2cc(C)on2)cc1 | -0.3 | -0.4
O=C(NNC(=O)C1Cc2cncn2C(=O)N1)Nc1cccc(C(F)(F)F)c1 (configuration not stated) | . | -0.49
COC(=O)Cn1cnc2c1c(=O)[nH]c(=O)n2C | 1.8 | .
O=C(N/N=C/c1ccccc1)N/N=C/c1ccccc1 | -0.4 | 0.14
CCc1ccc(-c2nn(-c3ccccc3)cc2/C=N\O)cc1 | -0.85 | 0.24
O=C(NNC(=O)C1c2ccccc2Oc2ccccc21)OCCSCc1ccc2nonc2c1 | . | 0.61
Cc1nc(C(F)(F)F)ccc1-c1nnc(SC(=O)c2ccc(Cl)cc2)o1 | 0.1 | 0.38
COCCNc1nc(-c2ccc(OC)cc2)nc2ccccc12 | -1.1 | 32
FC(F)(F)c1ccc(Sc2nnc3ccccn23)nc1 | 0.5 | .
NNC(=O)c1ccc2c(c1)OCO2 | -0.35 | .
Cc1cccc(C(O)(CCN2CCCCC2)c2ccccc2)c1 (configuration not stated) | -0.9 | 0.1
COc1ccc2c(c1)c(C(=O)ON1C(=O)CCC1=O)c(C)n2C1CC1 | 0 | 0.095
COc1ccc(CNC(=O)c2cc3c(C)nccc3[nH]c2=O)cc1 | 1.1 | 0.67

Molecules above with bromine, in the order listed:
SMILES | AID504770 | Ba CapD inh
CCC(=O)NC(=S)Nc1ccc(NC(=O)c2ccc(Br)o2)cc1 | 0.2 | -0.49
Cc1nc(/N=C(\N)NC(=O)Nc2ccc(Cl)cc2)sc1Br | 0.7 | 0.6

Further compounds follow.
SMILES | AID504770 | Ba CapD inh
Cc1cccc(NC(=O)C(Cc2c[nH]c3ccccc23)NC(=O)Oc2ccccc2)c1 (configuration not stated) | . | 0.22
Cn1c(=O)c2c(SCC(=O)NCCc3ccccc3)nc(C3CC3)nc2n(C)c1=O | 1 | .
CN(C)S(=O)(=O)c1ccc(NS(=O)(=O)c2ccc3oc(=O)ccc3c2)cc1 | . | -0.36
O=C1CC2(CCCC2)C(=O)N1c1ccc(S(=O)(=O)NC2CCCCC2)cc1Cl | 0.5 | 0.12
CCOC(=O)C1=C(C(=O)OCC)SC2(S1)C(C(=O)OCC)=C(C(=O)OCC)SC1=C2c2cc(OCC)ccc2NC1(C)C | . | -0.26
COC(=O)COc1ccc(SC(F)(F)F)cc1 | . | -0.92
NS(=O)(=O)c1ccc(N2C(=O)C3CC=CCC3C2=O)cc1 (configuration not stated) | -0.5 | 0.1
O=[N+]([O-])c1c(Sc2ncnc3ccccc23)ccc2nsnc12 | . | 0.08
Cc1cccn2cc(CNS(=O)(=O)c3ccccc3F)nc12 | -1.3 | .
O=C(O)CCC(=O)NC(c1ccccc1)c1ccccc1 | -0.4 | .
CCOc1ccc(NC(=O)C2CCC(N3C(=O)C4CC=CCC4C3=O)CC2)cc1 (configuration not stated) | -0.25 | .
COc1ccc(C(=O)NC(=O)CSc2nnc(CN3CCCCCC3=O)n2-c2ccccn2)cc1 | 0.05 | .
Cc1ccc(NC(=O)c2cc3cc(Br)ccc3oc2=O)c([N+](=O)[O-])c1 | . | -0.44
CCCN1CCC(N(C(=O)CCC(=O)NCc2cccc(C(F)(F)F)c2)C2CC2)CC1 | . | 0.015
CN(Cc1ccccc1)C(=O)c1ccc(Br)cc1 | -1.1 | 0.16
CCOc1ccc(OCCCn2cnc3ccccc3c2=O)cc1 | -0.05 | 0.08
O=C1c2cccnc2C(=O)C1c1ccnc2ccccc12 (configuration not stated) | 0.75 | .
Cc1cc2c(c(Sc3ccccc3)n1)C(=O)OC2 | -0.4 | -0.005
O=S(=O)(Nc1ccc(-c2cn3ccsc3n2)cc1)c1ccccc1 | 1.9 | .
CC(C)c1nc(-c2ccc(-c3ccon3)s2)no1 | -0.55 | 21
O=C(N/N=C/c1c(F)cccc1F)c1ccccc1Oc1ccccc1 | . | 0.57
O=C(O)C1(Cc2nc3ccccc3[nH]2)CCCC1 | 1.8 | .
O=C(NCCc1ccccc1)c1cc2ccccc2nc1Cl | 1.4 | 2.8
O=C1CCCC2=C1C(c1ccc(-c3ccccc3)cc1)C1=C(CCCC1=O)O2 | . | -0.3

Overlap with the part before: two compounds, then new ones.
SMILES | AID504770 | Ba CapD inh
O=C(NCCc1ccccc1)c1cc2ccccc2nc1Cl | 1.4 | 2.8
O=C1CCCC2=C1C(c1ccc(-c3ccccc3)cc1)C1=C(CCCC1=O)O2 | . | -0.3
CCC(C(=O)Nc1cc(C)ccc1C)n1nc(C)n2c(cc3cc(C)ccc32)c1=O (configuration not stated) | -0.3 | 7.3
CCN(CC)C(=S)SCc1cccs1 | -0.15 | .
O=C(CSc1nnc2c(Cl)cc(C(F)(F)F)cn12)NCC(F)(F)F | 0.1 | .
Cc1cc2nc(NC3=NC(O)C=C(CSc4nc5ccccc5[nH]4)N3)nc(C)c2cc1C (configuration not stated) | 0.3 | -0.19
CN(Cc1ccccc1)C(=O)CNc1ccc(Br)cc1 | -0.15 | 0.62
CCc1ccc(Nc2c3c(nc4ccccc24)CCC3)cc1 | -0.55 | 0.16
COC(=O)c1c(C)nc(C)c(C(=O)OC)c1-c1csc(S(=O)(=O)/N=C/N(C)C)c1 | 0.45 | 0.35
CC1CC(=O)Nc2ccccc2N1C(=O)COc1ccccc1Br (configuration not stated) | 0.4 | .
Cc1ccc(NC(=O)CSc2nccn2C)cc1 | -1.5 | -0.15
COc1ccc(C(=O)Nc2sc3c(c2C(=O)NCc2cccnc2)CCCC3)cc1 | 0.5 | 0.97
N#Cc1c(NC(=O)c2ccc(Cn3cc(Br)cn3)o2)sc2c1CCCCCC2 | 1.4 | 0.2
NC(=O)COc1ncnc2ccccc12 | 0.65 | 0.17
Cc1ccc2c(c1)N(CC(=O)c1ccc(F)cc1)C=NS2(=O)=O | 0.3 | 0.16
O=C(CSc1nc2ccccc2c(=O)n1CC1CCC(C(=O)NCc2ccccc2)CC1)NCc1ccco1 (configuration not stated) | . | -0.57
COC(=O)C1=C(C)N(CCc2ccc(OC)c(OC)c2)C(=O)/C1=C\c1ccc(N(C)C)cc1 | -0.35 | -0.17
CC(NC(=O)CCCn1c(=O)[nH]c2ccsc2c1=O)C12CC3CC(CC(C3)C1)C2 (configuration not stated) | 0.6 | -0.005
CSc1nc2sc3c(c2c(=O)n1-c1ccccc1)CC(C(C)C)OC3 (configuration not stated) | 0.55 | -0.68
Cc1c(Cl)cccc1NC(=O)CSc1ncccc1C(=O)O | . | -0.43
CCN(CC)C(=O)CSc1nc(N)c2c3c(sc2n1)COC(C)(CC)C3 (configuration not stated) | 1.1 | 3.5
CSC1=NC(=Nc2ccc(C)cc2)C2(CCC(C(C)(C)C)CC2)N1c1cccc(O)c1 (configuration not stated) | . | 0.015
CC(C(=O)Nc1cccc(C#N)c1)N(C)Cc1ccc(Cl)cc1 (configuration not stated) | -0.35 | .
COc1ccccc1C1CC(=O)N2CN(C3CCCCC3)CSC2=C1C#N (configuration not stated) | -0.8 | -0.8
N#CCOc1ccc2nonc2c1 | 1 | 0.7
CCC(Sc1nc(NCCc2ccccc2)c2ccccc2n1)C(=O)N1CCOCC1 (configuration not stated) | . | 2.5
CCOC(=O)C1=C(c2ccccc2)S/C(=C2/C(=S)C(C)(C)N(C(=O)CC(C)C)c3ccc(OCC)cc32)S1 | . | 0.61
CC(C)S(=O)(=O)c1cnc(C(F)(F)F)nc1N | -0.1 | -0.57
O=c1[nH]c(SCc2ccccc2Cl)nc2c1cnn2-c1ccccc1 | -0.45 | -0.42
O=S(=O)(c1ccc(O)c(N=Cc2ccccc2O)c1)C(F)(F)F | -1.1 | -1.2
Cc1cc(-c2ccccc2)[o+]c(-c2ccccc2)c1 | 0.45 | -0.05
Cn1cc(CC(=O)NCC2CCCO2)c2ccccc21 (configuration not stated) | 0.2 | 0.45
O=S(=O)(c1cc(Cl)cc(Cl)c1)N1CCN(S(=O)(=O)c2cccs2)CC1 | 0.2 | -0.065
CC(C)(C)c1ccc(NC(=O)CN2CCOCC2)c(NC(=O)c2ccco2)c1 | 0.9 | 0.43
COc1ccc(-n2ncc3c(N4CCN(c5ccccc5)CC4)ncnc32)cc1 | . | -0.25
Cc1cc2c(cc1C)N(C(=O)c1ccccc1Cl)C(C)(C)c1ssc(=S)c1-2 | . | 0.065
CS(=O)(=O)N(CCc1ccccc1)CC(=O)N1CCOCC1 | 0.25 | .
CCOC(=O)/C(=N/O)C1=NC2(C)CCCCC2c2ccccc21 (configuration not stated) | -0.55 | -0.26
O=C(CSc1n[nH]c(-c2ccco2)n1)N1c2ccccc2Sc2ccccc21 | -0.6 | 13
O=S(=O)(c1ccc(Cl)cc1)c1ccccn1 | 0.5 | .
Cc1ccc2[nH]c(O)c(N=O)c2c1 | -1.5 | .
CS(=O)(=O)N1CCC(c2c[nH]c3ccccc23)CC1 | . | -0.85
C[C@@H]1CC[C@@]2(NC1)O[C@H]1C[C@H]3C4CC=C5C[C@@H](O)CC[C@]5(C)C4CC[C@]3(C)C1[C@@H]2C (some centres not stated) | -0.45 | .
COC(=O)c1ccc(N2C(=O)C3ON(c4ccccc4)C(c4ccc(OC)cc4OC)C3C2=O)cc1 (configuration not stated) | 1.8 | -0.32
O=S(=O)(c1ccccc1)c1ccc(-c2ccn[nH]2)cc1 | 1.6 | -0.27
CC(C)(C)C(=O)NC12CC3CC(CC(C3)C1)C2 | 2.5 | -0.38
Cc1ccc(C)c(N2C(=O)/C(=C/c3ccc(Cl)cc3)C=C2c2ccccc2)c1 | . | -0.4
C(=N\N(Cc1ccccc1)Cc1ccccc1)/c1ccco1 | -0.2 | .
O=CN1N=C(c2ccccc2)CC1c1ccccc1 (configuration not stated) | -0.75 | -0.15
Cc1ccc(C)c(N2CCN(S(=O)(=O)c3ccc4c(c3)CCN4C(=O)CCC(=O)O)CC2)c1 | -1.3 | 5.5
Cc1nc(CS(=O)(=O)c2ccc(Cl)cc2)cc(N2CCOCC2)n1 | . | 0.14
CCCC(=O)NCCc1cc2c(OC)ccc(OC)c2[nH]c1=O | -0.8 | -0.03

Laid out differently: results already given.
Below each SMILES – AID504770, Ba CapD inh
CCCCCCOc1ccc(C(=O)Nc2ccccn2)cc1
 : 2.6, 0.16
O=C(CCNS(=O)(=O)c1cccc2nsnc12)NC1CCCC1
 : ., -1.5
COCCNc1nc(-c2ccc(OC)cc2)nc2ccccc12
 : -1.1, 32
COc1ccc2c(c1)c(C(=O)ON1C(=O)CCC1=O)c(C)n2C1CC1
 : 0, 0.095
